PKD1 kinase inh = inhibitors of human PKD1 kinase; Q15139; inhibition, %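 (about 10 µM by stock and volumes)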; actives 0.056% (n = 200,000); AID 797; PKD1 kinase fluorescence polarization assay;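 active = inhibition of 50% or more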;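 also: controls were vehicle for no effect and a reference inhibitor for full effect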
Target sequence (Q15139 whole entry, looked up): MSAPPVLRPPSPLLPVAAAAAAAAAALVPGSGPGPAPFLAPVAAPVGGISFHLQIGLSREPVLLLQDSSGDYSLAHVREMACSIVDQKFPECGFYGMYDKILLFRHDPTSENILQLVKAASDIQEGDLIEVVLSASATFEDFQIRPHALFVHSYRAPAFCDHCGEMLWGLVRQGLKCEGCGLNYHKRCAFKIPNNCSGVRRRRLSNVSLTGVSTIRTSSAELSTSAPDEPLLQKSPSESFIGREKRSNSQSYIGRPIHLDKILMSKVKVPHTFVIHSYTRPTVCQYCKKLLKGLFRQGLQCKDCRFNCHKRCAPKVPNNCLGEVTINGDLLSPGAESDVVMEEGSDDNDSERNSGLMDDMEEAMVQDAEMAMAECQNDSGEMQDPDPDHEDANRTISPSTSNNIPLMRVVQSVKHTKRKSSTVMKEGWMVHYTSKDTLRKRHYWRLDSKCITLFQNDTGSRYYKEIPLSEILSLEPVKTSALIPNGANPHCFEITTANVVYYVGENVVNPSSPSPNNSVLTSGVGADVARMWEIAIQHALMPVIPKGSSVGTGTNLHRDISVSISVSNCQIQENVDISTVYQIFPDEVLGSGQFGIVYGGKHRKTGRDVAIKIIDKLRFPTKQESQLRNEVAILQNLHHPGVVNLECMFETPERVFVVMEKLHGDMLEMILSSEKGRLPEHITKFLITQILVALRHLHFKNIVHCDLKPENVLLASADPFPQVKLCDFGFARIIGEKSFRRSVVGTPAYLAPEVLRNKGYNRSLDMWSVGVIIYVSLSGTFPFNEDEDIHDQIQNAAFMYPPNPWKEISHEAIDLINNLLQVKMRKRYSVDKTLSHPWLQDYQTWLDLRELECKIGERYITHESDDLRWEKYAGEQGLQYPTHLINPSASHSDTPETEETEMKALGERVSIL
RGS16-Gao = RGS16-Galphao interaction regulator (human) | O15492+P09471 | bead-based flow cytometry RGS16-Galphao binding, fluorescence; actives lie on both sides | binding response (% of control), % at 10 µM | actives 0.38% (n = 220,000);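 active = below 25% or above 175%, edge rows of some plates excepted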;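 also: Galphao activated by GDP with aluminum fluoride before binding; 100% = wells without compound and 0% = beads without RGS; some results beyond the cut were filed as inactive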
Insulin prom inh = TRM-6 insulin promoter activity inhibition. actives 0.9% (n = 130,000). TRM-6 cells (human fetal islet line), insulin promoter-eGFP reporter, imaging; reporter expression induced with tamoxifen. AID 1273. inhibition, % at 2 µM;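 active = inhibition above the mean plus 3 SD, with well images judged a real hit on visual review, cut at about 60% in these data, passing the limit was not always enough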
GALR2 ag = GALR2 (human) receptor agonism | O43603 | GALR2-expressing cells, agonist activation read-out | activation, %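 (tested at 5 µM)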 | actives 0.48% (n = 140,000) | AID 803;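 active = above mean plus 3 SD of all compounds, about 5% in these data, not always enough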;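 also: 0% = vehicle buffer wells and 100% = reference agonist at full effect; tested in CHO reporter cells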
HSV replic up = increases HSV replication in cells; actives 0.005% (n = 220,000); HSV replication augmentation in cells, fold increase; AID 1956; maximum fold increase;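 active = peak rise of 1.5-fold or more in the series; tested in PC3 cells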;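 also: first round at 10 µM; read as green reporter fluorescence; hits show the peak of a series up to 25 µM; 1 = signal of infected wells without compound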
Insulin prom inh cell count = recorded beside Insulin prom inh, whose call it bears; normalized cell count, %; measured here: cell count, toxicity; reference of the scale not given here;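 cells exposed to compound for 48 h; stained nuclei by imaging scaled within each plate; lower means fewer cells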
HSV replic up primary fold = second read-out of HSV replic up, no call of its own (marks repeat the call); fold increase; compound at 10 µM; measured here: primary screen fold increase 10 uM; tested in PC3 cells;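 GFP signal in the first replicate; 1 = infected wells without compound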
* marks the source's active call; other numbers are inactive results; i = inactive; . = no result given.

SMILES	PKD1 kinase inh	RGS16-Gao	Insulin prom inh	Insulin prom inh cell count	GALR2 ag	HSV replic up	HSV replic up primary fold
Cc1cc(C)nc(NS(=O)(=O)c2ccc(NC(=S)NC(=O)c3ccco3)cc2)n1	-4	88	-6	88	.	i	1.1
O=C(Nc1ccc(F)cc1F)N1CCCCC1c1cccnc1 (configuration not stated)	4	104	.	.	-0.7	i	0.89
COc1ccc(Oc2c(C)oc3c(CN4CCOCC4)c(O)ccc3c2=O)cc1	12	101	-4	105	-1.5	i	1
COc1cccc([C@@H]2Oc3ccc(OC)cc3C(=O)[C@H]2OC(=O)Nc2cc(OC)c(OC)c(OC)c2)c1	-14	101	15	129	-0.8	i	0.85
N#Cc1ccc(CSCC(=O)NN=C2CCCC2)cc1	-6	92	-100	91	.	i	0.97
Cc1ccc(/C(O)=C2\C(=O)C(=O)N(CCN(C)C)C2c2ccccc2F)cc1 (configuration not stated)	-8	77	.	.	-1.5	i	0.72
CCc1c(O)nc(SCC(=O)N(CC)CC)[nH]c1=O	2	140	.	.	.	i	0.85
O=C(Nc1ccc(N2CCN(C(=O)c3ccco3)CC2)c(Cl)c1)c1cccs1	-6	101	-356	77	-1.0	i	0.84
CCOc1ccc(NC(=O)CCSc2nc3c(c(CC)c2C#N)C(=O)CC(C)(C)C3)cc1	-1	102	-5	65	-1.2	i	0.99
COc1ccc(C2C(C(=O)Nc3ccc(OC)c(OC)c3)c3ccccc3C(=O)N2C)cc1 (configuration not stated)	13	101	.	.	.	i	1
CS(=O)(=O)N1CCC(Oc2ccccc2C(=O)N2CCN(CC3CC3)CC2)CC1	-2	72	-35	47	.	i	1.1
CC(=O)Nc1c(Nc2ccccc2)c2ccccc2oc1=O	-2	162	-27	47	.	i	1
Cc1ccc(Nc2ccc(S(=O)(=O)N3CCOCC3)cc2[N+](=O)[O-])cc1C	1	102	.	.	-2.2	i	0.87
O=C(COC(=O)CCC(=O)c1cccs1)NCc1ccccc1	1	101	-57	87	.	i	1.1
CCC1CCCCN1C(=S)Nc1ccc(C(C)=O)cc1 (configuration not stated)	1	108	45	96	-1.5	i	1
Cc1ccc(Nc2nc(N)nc(CN3CCN(Cc4ccc5c(c4)OCO5)CC3)n2)c(C)c1	-6	111	.	.	-1.8	i	0.88
CCOc1ccc(S(=O)(=O)N2CCN(c3ccccc3F)CC2)c2cccnc12	-2	102	-121	131	-0.3	i	0.88
CCN(CC)S(=O)(=O)c1ccc(Cl)c(NC(=O)COc2ccc(OC)cc2[N+](=O)[O-])c1	-2	104	31	91	-2.0	i	0.9
CCN(CC)c1nc(C)c2c(c1C#N)CC(C)(C)OC2	15	101	.	.	-1.8	i	0.92
Cc1ccc(S(=O)(=O)N2CCCCC2)cc1NC(=O)c1ccccn1	.	98	.	.	.	i	0.93
O=C(c1cccc(NS(=O)(=O)c2cccc(F)c2)c1)N1CCN(c2ccccc2)CC1	4	100	-10	142	-0.8	i	0.89
O=C(CSc1nnc2sc3ccccc3n12)N1CCN(c2ccccc2)CC1	-3	102	-12	90	-1.2	i	0.75
COc1ccc2c(c1)C(c1ccccc1)=NNC(c1ccco1)=N2	2	100	.	.	-2.2	i	0.92
CCOCCCNC(=O)C(c1ccccc1)N(Cc1cccs1)C(=O)CNC(=O)c1ccccc1 (configuration not stated)	-19	72	-100	49	-1.2	i	0.94
O=C(NC(Cc1c[nH]c2ccccc12)C(=O)O)c1cccs1 (configuration not stated)	-3	95	.	.	.	i	0.99
O=C(O)CSC(NC(=O)c1cccnc1)(C(F)(F)F)C(F)(F)F	8	91	-129	78	-1.6	i	0.88
Cc1ccc(CN(C)CCc2ccccn2)cc1	-5	93	.	.	1.7	i	1
COc1ccccc1OCc1ccc(C(=O)N/N=C/c2ccco2)cc1	-1	76	-23	21	-1.1	i	0.97
C/C=C\C(=O)Nc1cccc(C2=NOC3(C2)C[C@@H](C(N)=O)N(C(=O)CCCCC)C3)c1 (some centres not stated)	.	105	.	.	.	i	1.1
O=C(Cc1c(C(=O)O)[nH]c2ccccc12)NCCN1CCN(c2ccccc2F)CC1	-2	102	.	.	-1.7	i	0.67
CCCNC(=O)OC[C@H]1O[C@H](CCO/N=C/[C@@H](OC)[C@H](C)/C=C/CC(=O)OC)C=C[C@@H]1Oc1ccc(OC)cc1	-3	106	5	66	-1.1	.	.
Cc1ccc(OCC(=O)NC(=S)Nc2cccc(NC(=O)c3ccc(Cl)cc3Cl)c2)cc1	4	99	.	.	-0.8	i	1.2
CCOc1cc(CNCc2ccncc2)cc(Br)c1OCc1ccccc1F	-3	99	.	.	-2.1	i	0.93
Nc1nnc(CC(=O)N/N=C/c2ccccc2OCc2ccc(F)cc2)s1	.	100	.	.	.	i	0.9
Cc1cc(C)n(C(=O)CNc2cccc(Cl)c2C)n1	-3	100	-108	65	-1.7	i	0.97
COc1ccc(-c2nc(C#N)c(N3CCN(c4ccccc4)CC3)o2)cc1	13	196	.	.	-2.3	i	0.9
NNC(=O)CCS(=O)(=O)c1ccc2ccccc2c1	2	99	-450	57	-1.6	i	0.99
O=C1CCCC/C1=C/Nc1cccc(C(F)(F)F)c1	5	101	-20	80	.	i	0.88
COc1ccccc1NC(=O)Nc1nn(C)c2cccc(N(C)C)c12	.	93	.	.	.	i	0.92
N#Cc1c2c(c(NCc3cccnc3)n3c1nc1ccccc13)CCC2	-11	99	64	61	1.0	i	1
COc1ccc(OC)c(/C=N/NC(=O)CCN2CCN(C(c3ccccc3)c3ccccc3)CC2)c1	-2	109	.	.	0.2	i	0.75
COCCn1c(-c2ccccc2)nc2c(c(=O)c3ccccc3n2C)c1=O	-11	87	-40	38	-0.8	i	1.1
Cc1cc(NC(=O)C2CC(=O)OC2c2ccccc2)no1 (configuration not stated)	-12	100	.	.	-1.2	i	1
COc1ccc(CCNC(=O)CCc2ccc(S(=O)(=O)NC(C)C)cc2)cc1	-4	97	71*	47*	-0.7	i	0.89
CCCCOc1cccc(C(=O)Nc2ccc(N3CCN(CC)CC3)cc2)c1	-2	176	.	.	-0.4	i	0.96

Whole records, looked up by structure.
`COc1ccc(-c2nc(C#N)c(N3CCN(c4ccccc4)CC3)o2)cc1` as listed: PKD1 kinase inh = 13; RGS16-Gao = 196; Insulin prom inh = .; Insulin prom inh cell count = .; GALR2 ag = -2.3; HSV replic up = i; HSV replic up primary fold = 0.9
`COc1ccc(OC)c(/C=N/NC(=O)CCN2CCN(C(c3ccccc3)c3ccccc3)CC2)c1` as listed: PKD1 kinase inh = -2; RGS16-Gao = 109; Insulin prom inh = .; Insulin prom inh cell count = .; GALR2 ag = 0.2; HSV replic up = i; HSV replic up primary fold = 0.75
`COc1ccccc1NC(=O)Nc1nn(C)c2cccc(N(C)C)c12` as listed: PKD1 kinase inh = .; RGS16-Gao = 93; Insulin prom inh = .; Insulin prom inh cell count = .; GALR2 ag = .; HSV replic up = i; HSV replic up primary fold = 0.92

Later entries:
SMILES	PKD1 kinase inh	RGS16-Gao	Insulin prom inh	Insulin prom inh cell count	GALR2 ag	HSV replic up	HSV replic up primary fold
COc1c(F)c(F)c(C(=O)O)c(Nc2ccc(C)cc2)c1F	5	100	21	88	-2.4	i	1
O=C(O/N=C1/CCSc2ccccc21)c1ccc(F)cc1	2	92	.	.	-1.7	i	1.1
CC1=CC(=C2C=CC(=O)C=C2)C=C(C)N1C	.	100	.	.	.	i	1.2
Cc1ccc(S(=O)(=O)N2CCN(C(=S)NCc3ccc4c(c3)OCO4)CC2)cc1	2	102	-78	98	.	i	1
COc1ccc(C)c(Cn2c(-c3nonc3N)nc3ccccc32)c1	5	97	i	22	-1.3	.	.
O=C(NCCCn1ccnc1)c1cn(Cc2ccc(F)cc2)nn1	-16	103	.	.	-0.8	i	1
O=C(C1=C[C@H](c2ccccc2)C[C@H](OCCCCO)O1)N1CCN(Cc2ccccc2)CC1	2	94	.	.	.	i	0.96
Cc1nc2ccc(NC(=O)c3nn(CC(C)C)c(=O)c4ccccc34)cc2s1	-2	104	35	81	-1.0	i	0.94
CC1=Nc2ccccc2N=C(NC(=O)CSc2nnnn2-c2ccccc2)C1c1ccccc1 (configuration not stated)	0	97	-26	59	0.3	.	.
C=CCSC1=N/C(=C\c2cc(OC)c3c(c2)OCO3)C(=O)S1	-9	91	7	137	-2.5	i	1.1
O=c1[nH]c2ccccc2n1C1CCCCC1	-3	103	-48	68	-0.9	.	.
CCCSc1nc2c(c(=O)[nH]c(=O)n2C)n1CC(O)COc1ccccc1 (configuration not stated)	.	99	.	.	.	i	0.88
CCCS(=O)(=O)c1c(S(=O)(=O)CCC)c2ccc(C(N)=O)cn2c1C(=O)c1ccc(OC)cc1	-10	96	11	50	.	i	0.89
O=C(CCSc1nnc(-c2ccncc2)o1)Nc1ccc(Cl)cc1	-8	145	.	.	-1.8	i	0.94
O=C(Nc1ccc(Cl)cc1)C1=Cc2ccccc2OC1	-5	95	-25	171	-2.4	i	0.83
CN(C)CCNC(=O)c1ccc(COc2ccc(Cl)cc2Cl)cc1	8	100	3	137	0.3	i	0.67
COc1ccc(-c2nc(=S)c3c(n2Cc2cccnc2)CC(C)(C)OC3)cc1	.	100	.	.	.	i	0.96
N#Cc1ccc(-c2ccccc2)nc1SCC(=O)c1cccc(Cl)c1	-3	85	-67	102	-2.7	i	1.3
CN1CCN(C(=S)c2ccc([N+](=O)[O-])cc2)CC1	-12	105	.	.	0.2	i	1.1
CC1(c2ccc3c(c2)OCO3)NC(=O)N(CC(=O)NCCC2=CCCCC2)C1=O (configuration not stated)	23	105	-14	91	-0.7	i	1
CCn1cc(C(=O)O)c(=O)c2cc(OC)ccc21	-13	99	18	82	-1.4	i	0.91
CCOC(=O)CN(C(=O)CNC(=O)c1ccco1)C(C(=O)NC1CCCCC1)c1cccs1 (configuration not stated)	3	100	62	92	-0.2	i	0.93
O=c1cc(-c2ccccc2Cl)oc2c(Br)ccc(O)c12	0	64	14	27	-2.0	i	0.75
CCN(CC)c1ccc(N)cc1S(=O)(=O)Nc1ccc(OC)cc1	.	96	.	.	.	i	1.1
COc1cccc(NC(=O)c2ccc(CN3CCN(c4ccccc4)CC3)cc2)c1	-8	107	-30	103	-1.1	i	0.8
NS(=O)(=O)c1ccc(CCNC(=O)CSc2ncnc3ccccc23)cc1	-1	100	.	.	.	i	1
CCN(CC)CCn1c(-c2ccc(C)cc2)nc(=S)c2c1CC(C)(C)OC2	.	105	.	.	.	i	1.1
Cc1ccc2c(c1)C1CN(C)CCC1N2C(=O)c1cccc(S(=O)(=O)N(C)C)c1 (configuration not stated)	4	95	.	.	.	i	1
CCCNC(=O)c1ccc2c(=O)c(O)c(-c3cccc(Br)c3)[nH]c2c1	.	105	.	.	.	i	0.91
CCN(CCCNC(=O)C1CCC(=O)N1Cc1ccc(F)cc1)c1cccc(C)c1 (configuration not stated)	0	114	.	.	-1.9	i	1.1
Fc1ccc(Nc2ccc3ccccc3n2)c(F)c1	5	103	.	.	.	i	1.1
CCn1c(SCC(=O)C(C)(C)C)nnc1-c1cccnc1	-6	80	-65	197	-2.6	i	1.1
O=C(/C=C/c1ccc(N2CCCCC2)c([N+](=O)[O-])c1)c1ccc(O)cc1	1	104	83*	88*	.	i	0.61
O=C(N/N=C/C(Br)=C\c1ccccc1)c1n[nH]c2c1CCC2	3	106	-39	13	2.5	.	.
CCCCn1ccnc1C(=O)c1cc(S(=O)(=O)N2CCOCC2)ccc1C	2	103	-89	128	-1.6	i	0.94
CCOC(=O)c1ccc(NC(=S)NCCc2ccc(OC)c(OC)c2)cc1	.	99	.	.	.	i	1.1
CCOC(=O)C1CCN(C(=O)COc2ccc([N+](=O)[O-])cc2)CC1	-2	101	.	.	.	i	0.8
CC(=O)Nc1nnc(CSCc2ccccc2F)s1	.	117	.	.	.	i	0.92
CCN(CC)C(=S)SC1=CCS(=O)(=O)C1	-4	106	44	89	.	i	1.1
c1ccc2[nH]c(CSc3nc4ccccc4o3)nc2c1	-4	112	.	.	-2.4	i	0.97
CCC1(CC)C(=O)NN(c2ccccc2)C1=O	4	105	30	86	-2.5	i	1
COc1ccccc1-c1nn2c(-c3ccco3)nnc2s1	3	96	.	.	0.7	i	0.75
COCCOC(=O)C1=C(C)NC(=O)NC1c1ccc(-c2cc(Cl)ccc2Cl)o1 (configuration not stated)	-3	112	.	.	.	i	1.1
NC(=O)c1ccc[n+](CC(=O)OCCC23CC4CC(CC(C4)C2)C3)c1	0	105	.	.	-5.0	i	0.97

Two of the compounds above, in CSV form.
Molecule,PKD1 kinase inh,RGS16-Gao,Insulin prom inh,Insulin prom inh cell count,GALR2 ag,HSV replic up,HSV replic up primary fold
CCCS(=O)(=O)c1c(S(=O)(=O)CCC)c2ccc(C(N)=O)cn2c1C(=O)c1ccc(OC)cc1,-10,96,11,50,.,i,0.89
O=C(CCSc1nnc(-c2ccncc2)o1)Nc1ccc(Cl)cc1,-8,145,.,.,-1.8,i,0.94

Bioassay records from PubChem.
